# PKD1 inh: inhibitors of human PKD1 kinase | Q15139 | AID 797 | PKD1 kinase fluorescence polarization assay | 200,000 compounds, 0.056% hits | inhibition, %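 (about 10 µM by stock and volumes)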;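 active = inhibition of 50% or more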;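 also: controls were vehicle for no effect and a reference inhibitor for full effect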
# Target sequence (Q15139 whole entry, looked up): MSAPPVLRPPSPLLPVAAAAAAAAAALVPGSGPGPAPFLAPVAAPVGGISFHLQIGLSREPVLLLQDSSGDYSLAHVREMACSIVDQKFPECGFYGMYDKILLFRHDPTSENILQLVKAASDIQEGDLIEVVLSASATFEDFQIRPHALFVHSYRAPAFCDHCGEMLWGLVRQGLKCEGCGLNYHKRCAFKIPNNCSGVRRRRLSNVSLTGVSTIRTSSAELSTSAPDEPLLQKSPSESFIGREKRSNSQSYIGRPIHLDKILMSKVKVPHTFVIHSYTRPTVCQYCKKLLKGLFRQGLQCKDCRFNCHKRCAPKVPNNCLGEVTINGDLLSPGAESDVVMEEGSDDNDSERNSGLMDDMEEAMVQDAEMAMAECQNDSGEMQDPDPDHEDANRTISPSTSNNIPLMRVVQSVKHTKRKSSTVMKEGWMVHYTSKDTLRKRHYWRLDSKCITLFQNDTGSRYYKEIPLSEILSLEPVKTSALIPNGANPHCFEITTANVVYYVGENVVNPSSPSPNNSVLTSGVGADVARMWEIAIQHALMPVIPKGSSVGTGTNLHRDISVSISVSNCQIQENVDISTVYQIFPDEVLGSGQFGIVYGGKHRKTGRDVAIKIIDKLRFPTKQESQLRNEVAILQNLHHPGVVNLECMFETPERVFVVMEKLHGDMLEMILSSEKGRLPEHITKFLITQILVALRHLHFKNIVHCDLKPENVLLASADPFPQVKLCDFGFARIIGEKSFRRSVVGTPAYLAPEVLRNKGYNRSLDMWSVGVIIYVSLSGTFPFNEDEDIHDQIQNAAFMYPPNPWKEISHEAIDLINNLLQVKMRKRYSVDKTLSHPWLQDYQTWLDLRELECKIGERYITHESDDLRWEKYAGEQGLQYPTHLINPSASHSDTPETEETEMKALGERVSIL
# HSV augment: increases HSV replication in cells. AID 1956. 220,000 compounds, 0.005% hits. maximum fold increase. HSV replication augmentation in cells, fold increase;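 active = peak rise of 1.5-fold or more in the series; tested in PC3 cells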;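 also: first round at 10 µM; read as green reporter fluorescence; hits show the peak of a series up to 25 µM; 1 = signal of infected wells without compound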
# GALR2 ag: GALR2 (human) receptor agonism; activation, %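 (tested at 5 µM)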; O43603; AID 803; GALR2-expressing cells, agonist activation read-out; 140,000 compounds, 0.48% hits;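 active = above mean plus 3 SD of all compounds, about 5% in these data, not always enough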;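 also: 0% = vehicle buffer wells and 100% = reference agonist at full effect; tested in CHO reporter cells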
# INS promoter inh: TRM-6 insulin promoter activity inhibition; TRM-6 cells (human fetal islet line), insulin promoter-eGFP reporter, imaging; reporter expression induced with tamoxifen; inhibition, % at 2 µM; 130,000 compounds, 0.9% hits;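 active = inhibition above the mean plus 3 SD, with well images judged a real hit on visual review, cut at about 60% in these data, passing the limit was not always enough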
# RGS16-Gao: regulators of human RGS16-Galphao interaction | O15492+P09471 | bead-based flow cytometry RGS16-Galphao binding, fluorescence; actives lie on both sides | binding response (% of control), % at 10 µM | 220,000 compounds, 0.38% hits;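 active = below 25% or above 175%, edge rows of some plates excepted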;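 also: Galphao activated by GDP with aluminum fluoride before binding; 100% = wells without compound and 0% = beads without RGS; some results beyond the cut were filed as inactive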
# INS promoter inh cell count: also measured in INS promoter inh; calls as there; normalized cell count, %; measured here: cell count, toxicity; reference of the scale not given here;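 cells exposed to compound for 48 h; stained nuclei by imaging scaled within each plate; lower means fewer cells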
# HSV augment primary fold: second read-out of HSV augment, no call of its own (marks repeat the call); fold increase; compound at 10 µM; measured here: primary screen fold increase 10 uM; tested in PC3 cells;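 GFP signal in the first replicate; 1 = infected wells without compound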
# * hit, by the source's call; i = inactive; . = no result given.
SMILES,PKD1 inh,HSV augment,HSV augment primary fold,GALR2 ag,INS promoter inh,INS promoter inh cell count,RGS16-Gao
CCCCNCC(=O)Nc1ccc(NC(=O)CNCCCC)cc1,4,i,0.97,-0.4,-59,104,102
O=c1c2ccccc2nc(-c2ccccc2)n1CCCn1ccnc1,-8,i,1,-1.9,-36,129,103
COc1ccc(OC)c(NC(=O)CN(c2ccc(C(C)C)cc2)S(=O)(=O)c2c(C)noc2C)c1,4,i,0.91,-1.5,.,.,104
CCC(C)COC(=O)C(C#N)c1nc2ccccc2nc1N1CCCCC1 (centres undefined),3,i,0.95,-0.7,64,73,102
Cc1ccc(C)c(N(CC(=O)Nc2ccc(-c3nc4ccc(C)cc4s3)cc2)S(C)(=O)=O)c1,6,i,0.84,-1.3,-17,120,103
Cn1nc(C(F)(F)F)c(C#N)c1N1CCN(c2ccccc2F)CC1,-7,i,0.83,-0.9,.,.,99
O=C(O)Cc1ccc(O)c(O)c1,.,i,0.93,.,.,.,99
CC(C)(C)NC(=O)CN(C(=O)CS(=O)CC(=O)Nc1ccc(F)cc1)c1ccccc1 (centres undefined),-5,i,1.1,-2.4,0,148,102
Cc1c(C)n(CC(O)CN(CCO)CCO)c2ccccc12 (centres undefined),2,i,0.99,.,.,.,98
CCCCOC1(c2ccccc2)NC(=S)NN=C1c1ccccc1 (centres undefined),-7,i,0.79,-3.0,46,102,98
CC(Sc1nnc2ccccn12)C(=O)N1CCc2ccccc2C1 (centres undefined),-1,i,0.93,-1.6,0,139,97
CCOC(=O)c1cc(-c2ccc(OC)cc2)n(CCC(=O)NC2CCN(Cc3ccccc3)CC2)c1C,0,i,0.76,.,-48,107,103
COc1ccc2nc(NC(=O)c3ccc4ncsc4c3)sc2c1,-5,i,0.64,4.7,.,.,96
CC(C)(C)C(=O)N1CCCC1C(=O)O (centres undefined),-3,i,0.92,-1.9,29,56,103
O=C(Cc1ccc2c(c1)OCCO2)N1CCN(c2ccccc2)CC1,-5,.,.,.,-57,34,103
COc1ccc(C(=O)C2CCN(C(=S)NCC3CCCO3)CC2)cc1 (centres undefined),10,i,0.97,.,.,.,101
CCN(CC)S(=O)(=O)c1ccc(Oc2ccccc2OC)cc1,.,i,0.98,.,.,.,111
OC(CNCCc1ccccc1)c1ccccc1 (centres undefined),-2,i,1,0.7,-24,157,96
Cc1ccc(NC(=O)CSc2ncc3ccccn23)cc1,-6,i,1.1,.,.,.,98
Cc1cccc(NC(=S)Nc2ccccn2)c1,.,i,0.96,.,.,.,96
Cc1cccc2cc(C3CC(c4ccco4)=NN3S(C)(=O)=O)c(Cl)nc12 (centres undefined),.,i,0.82,.,.,.,103
O=C(c1ccc(Cn2cc(Br)cn2)o1)n1cccn1,-3,i,1,-2.4,-12,91,96
CC(C)[C@H](N)c1nnc(SC/C=C/c2ccccc2)o1,-2,i,0.86,-1.5,-14,63,95
Cc1cccc(Oc2sc(C(=O)c3ccccc3)c(N)c2C#N)c1C,-8,.,.,0.5,-43,82,94
Cc1ccc(C(=O)CNc2ccc(F)cc2)cc1,-19,i,1,-1.2,48,55,90
O=C(Nc1ccc(N2CCCCCC2)cc1)c1ccccc1Cl,-2,i,0.81,.,.,.,56
Cc1ccc2cc(C#N)c(N3CCCC3)nc2c1C,-3,.,.,0.0,11,108,97
COc1ccc(NC2CC(=O)N(c3ccc(C(=O)O)cc3)C2=O)cc1 (centres undefined),6,i,0.98,.,-44,25,116
CCOC(=O)N1CCN(S(=O)(=O)c2ccc(C(=O)Nc3nnc(CC)o3)cc2)CC1,-10,i,0.88,1.7,-18,123,101
CCOc1ccccc1C(=O)n1nc2nc(C)cc(C)c2c1N,-3,i,0.92,-1.1,-17,95,55
C=C1CCN([C@H](C(=O)NCc2ccco2)C(C)C)S(=O)(=O)c2ccccc21,.,i,1.2,.,.,.,97
CCOc1ccc(-c2csc3ncn(-c4ccc(OC)cc4)c(=O)c23)cc1,2,i,0.95,.,.,.,101
O=C(NC1=C(NC2CCS(=O)(=O)C2)C(=O)c2ccccc2C1=O)c1ccccc1 (centres undefined),-5,i,0.62,.,.,.,85
COc1ccc(N2CC(C(=O)NCc3cccnc3)CC2=O)cc1 (centres undefined),-22,i,1,-0.2,-70,101,98
Cc1ccc(-c2nc(C)sc2CC(=O)O)cc1,4,i,0.95,-1.6,3,83,101
COc1ccc(-c2csc(C3=C(O)CN(CCCN4CCCC4=O)C3=N)n2)cc1OC,7,i,0.87,.,.,.,103
Clc1ccc(Cn2nc(-c3ccccc3)nc2-c2ccccc2)cc1,-8,i,1.1,1.3,-30,112,112
C#CCn1c(S(=O)(=O)Cc2ccc(C)cc2)nc(-c2ccccc2)c1-c1ccccc1,7,i,0.77,-0.9,.,.,99
O=C(O)c1ccc(N/N=C/c2cccc(F)c2)cc1,-4,i,0.95,-1.1,37,90,102
CN(C)S(=O)(=O)N1CCC(Oc2ccc(C(=O)NCc3cnn(C)c3)cc2)CC1,-1,i,0.95,.,.,.,130
Cc1cc(C)n(-c2nc(SCC(=O)N3CCCC3)c3c4c(sc3n2)CCCC4)n1,-6,i,1.1,0.2,-8,78,100
Cc1ccc(-c2nnc(SCC(=O)NC3CC3)n2N)cc1,.,i,0.92,.,.,.,102
O=C(COC(=O)CCS(=O)(=O)c1ccc(Cl)cc1)NC1CCCCC1,-2,i,0.86,-0.6,10,89,101
COc1ccc(Cc2noc(-c3ccccc3)n2)cc1OC,-3,i,1,.,36,85,111
Cc1csc(SCC(=O)NC(=O)C2CCCCC2)n1,3,i,1,.,.,.,108
Cc1ccc(S(=O)(=O)N(CC(=O)N2CCC(C)CC2)c2cccc(C)c2)cc1,-3,i,0.69,-1.1,-62,67,101
O=C1[C@@H]2[C@@H]3C[C@@H]([C@H]4ON=C(c5ccc(Cl)cc5Cl)[C@@H]34)[C@@H]2C(=O)N1C1CCCCC1,-6,i,0.95,1.5,-48,111,108
COc1ccc(CCNC(=O)CCCn2c(=O)[nH]c3cc(OC)c(OC)cc3c2=O)cc1OC,-7,i,0.95,-0.6,-5,153,94
CC1(C)CC(Nc2ccc(C(F)(F)F)cc2[N+](=O)[O-])CC(C)(C)N1,6,i,0.57,.,.,.,102
O=C(Cc1ccc(-n2cccc2)cc1)NCc1cccs1,-8,i,0.45,-0.3,-186,18,89
Cc1ccc(N2N=C(c3ccc(Br)cc3)CCC2=O)cc1,-3,i,1.2,0.5,.,.,196
Cc1ccc(CNC(=O)CS(=O)CC(=O)O)cc1 (centres undefined),-5,i,1,-2.2,21,98,100
O=C(NC1CCCCCCC1)c1ccc2c(c1)N(Cc1ccc(F)cc1)C(=O)CS2=O (centres undefined),-5,i,0.88,0.2,.,.,107
Cc1ccc(S(=O)(=O)CCc2nnc(NC(=O)c3ccco3)s2)cc1,0,i,1,.,45,138,101
CCc1ccc(S(=O)(=O)NCc2csc(-c3ccccc3)n2)s1,-16,i,1,-1.6,7,150,106
CCN(CC)c1ccc(/C=N/NC(=S)NC)c(O)c1,-1,i,1.1,.,.,.,105
COC(=O)c1ccc(NC(=O)Cn2nc(C)cc2C)cc1,0,i,0.98,.,29,122,101
O=C1CCc2cc(S(=O)(=O)N3CCC(C(=O)NCc4ccccc4Cl)CC3)ccc2N1,-9,i,0.95,-2.6,.,.,108
C#CCCCc1nc2ccccc2c(=O)n1N,-6,.,.,0.9,50,113,104
O=C(O)c1ccc(Oc2c(C(F)(F)F)oc3cc(O)ccc3c2=O)cc1,-6,i,0.92,.,.,.,99

# The list continues.
SMILES,PKD1 inh,HSV augment,HSV augment primary fold,GALR2 ag,INS promoter inh,INS promoter inh cell count,RGS16-Gao
CCN(CC)c1ccc(/C=N/O)cc1,-2,i,0.83,.,.,.,107
CCCN1CCN(C(=O)c2cc3c(s2)-c2ccccc2S(=O)(=O)C3)CC1,6,i,0.93,-0.7,.,.,92
CN(c1ccc(C(=O)Nc2ccccc2C(=O)N2CCOCC2)cc1)S(C)(=O)=O,-4,i,1.1,-0.4,12,82,41
Cc1onc(-c2ccccc2)c1CNS(=O)(=O)c1ccccc1,.,i,1.1,.,.,.,96
O=C(CSc1nc2[nH]ncc2c(=O)[nH]1)c1ccc(Cl)cc1,1,i,0.97,.,.,.,105
CC(=O)c1n[nH]nc1NC(=O)c1ccccc1,6,i,0.87,1.5,5,159,103
COc1ccc(CCC(=O)Nc2ccc(C)c([N+](=O)[O-])c2)cc1,-6,i,1,0.5,13,131,100
Cc1ccc(O)c(C(=O)CC(=O)c2ccccc2Cl)c1,-8,i,1.1,.,.,.,130
COc1cccc(C(O)c2cnc(C(C)C)n2C)c1OC (centres undefined),-3,i,0.87,-0.6,-15,82,66
CCOC(=O)c1ccccc1NC(=O)c1cccc([N+](=O)[O-])c1,0,i,0.87,.,62,113,103
N#C/C(=C\Nc1ccc(Cl)cc1)S(=O)(=O)c1ccccn1,.,i,0.9,.,.,.,105
CCCN1CCN(C(=O)Nc2cccc(C(F)(F)F)c2)CC1,-6,i,1.1,.,-168,71,105
COc1ccc(-n2c(N)c(C(=O)NCc3cccnc3)sc2=S)cc1,-3,i,1.2,-2.8,6,79,47
O=C(Oc1cccc(NC(=O)c2cccs2)c1)c1cccc(S(=O)(=O)N2CCCC2)c1,-4,i,0.95,-1.3,-8,139,105
Cc1ccc(-c2nnn(CC(=O)N(Cc3ccco3)C(C(=O)NC(C)(C)C)c3ccncc3)n2)o1 (centres undefined),-6,i,1.1,.,.,.,100
Cc1ccccc1NC(=O)CSc1nnc(-c2ccco2)c(-c2ccco2)n1,-3,i,1,-1.4,-33,148,101
CCC(=O)NC(NC(=O)CC)C(Cl)Cl,-6,i,0.92,-0.3,0,120,121
CCCCN1CN=C(Nc2nc3ccccc3o2)NC1,0,i,0.98,-1.1,6,79,100
COc1ccccc1N1CCN(C(=O)c2ccc(NC(C)=O)cc2)CC1,8,i,0.94,-2.5,.,.,101
O=C(c1cc2nc(C3CC3)cc(C(F)(F)F)n2n1)N1CCCC1,1,i,0.94,-0.6,-383,74,109
COc1ccc(C2C(C#N)=C(N)Oc3c2c(C)nn3-c2ccccc2)cc1Cn1nc(C)c([N+](=O)[O-])c1C (centres undefined),-3,i,0.98,-1.8,46,99,102
O=C(c1ccccc1)c1ccc(OCC(O)CNC2CCCc3ccccc32)cc1 (centres undefined),0,i,1.2,-0.2,.,.,103
COc1ccc(-n2c(N3CCN(C)CC3)nc3sc4c(c3c2=O)CCCCC4)cc1,3,i,0.95,0.2,.,.,104
O=c1[nH]c2cc3c(cc2cc1CN(CCN1CCOCC1)C(=S)NCC1CCCO1)OCO3 (centres undefined),-1,i,1.1,.,.,.,109
O=C(COc1ccccc1)Nc1ccccc1C(=O)NCc1ccco1,-11,i,0.86,-3.3,-75,89,103
CC(=O)c1ccccc1NC(=O)CC1(CC(=O)O)CCCCC1,4,i,0.99,.,.,.,96
Cc1ccc2nc(C)cc(C(=O)N3CCCC(CO)(Cc4ccccc4C)C3)c2c1 (centres undefined),-4,i,0.94,.,-61,147,102
COc1ccc(-c2nc(NC(=O)c3nc4nccc(C)n4n3)sc2C)cc1,3,i,0.95,.,14,116,97
Cc1ccc(NC(=S)N/N=C2/CCCc3c(C)cc(C)cc32)cc1,0,i,0.85,-2.8,.,.,98
COc1cccc(CNc2ccc(F)c(Cl)c2)c1O,7,i,0.92,-2.5,.,.,61
CC(=O)c1cc2c(cc1NC(=O)CN1CCN(C(=O)c3ccco3)CC1)OCO2,-4,.,.,-1.9,.,.,.
CCOC(=O)Cn1cc(/C=C/[N+](=O)[O-])c2ccccc21,-7,i,0.93,.,-21,122,98

# 7 compounds from above, sorted by length of the SMILES, rising:
SMILES,PKD1 inh,HSV augment,HSV augment primary fold,GALR2 ag,INS promoter inh,INS promoter inh cell count,RGS16-Gao
O=C(COc1ccccc1)Nc1ccccc1C(=O)NCc1ccco1,-11,i,0.86,-3.3,-75,89,103
CCOC(=O)Cn1cc(/C=C/[N+](=O)[O-])c2ccccc21,-7,i,0.93,.,-21,122,98
COc1ccc(-c2nc(NC(=O)c3nc4nccc(C)n4n3)sc2C)cc1,3,i,0.95,.,14,116,97
Cc1ccc2nc(C)cc(C(=O)N3CCCC(CO)(Cc4ccccc4C)C3)c2c1 (centres undefined),-4,i,0.94,.,-61,147,102
COc1ccc(-n2c(N3CCN(C)CC3)nc3sc4c(c3c2=O)CCCCC4)cc1,3,i,0.95,0.2,.,.,104
O=c1[nH]c2cc3c(cc2cc1CN(CCN1CCOCC1)C(=S)NCC1CCCO1)OCO3 (centres undefined),-1,i,1.1,.,.,.,109
COc1ccc(C2C(C#N)=C(N)Oc3c2c(C)nn3-c2ccccc2)cc1Cn1nc(C)c([N+](=O)[O-])c1C (centres undefined),-3,i,0.98,-1.8,46,99,102
